Beta cell apopt: blocks beta cell apoptosis; protection from apoptosis, % (no concentration beside the values); INS-1E cytokine-induced death, ATP luminescence, 48 h; percent of positive-control rescue, neutral wells zero; 300,000 tested, 0.8% active;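 active = all replicates at 75% or more, or half of them and the mean; inconclusive = half reach 75% but not the mean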;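 note: 0% = cytokine-treated negative control wells and 100% = positive control rescue; higher means more ATP so stronger rescue from cytokine killing; wells of about 40 µL received 100 nL stock; the first replicate is given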
UCH37 inh: human UCH37 deubiquitinating enzyme inhibition | purified proteasome/UCH37, Ub-AMC cleavage fluorescence | inhibition, % (test concentration not listed) | 330,000 tested, 0.33% active | Q9Y5K5;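 active = mean of two replicates above 20%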;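 note: 0% = compound-free wells with enzyme and 100% = wells lacking proteasome; stock transfer was 100 nL into about 20 µL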
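system = Proteasome-associated human UCH37 deubiquitinase | amount = 0.15 nM proteasome as dispensed | medium = pH 7.4 Tris-HCl (50 mM) with ovalbumin, ATP-MgCl2, DTT | incubation = 30 min preincubation with enzyme, 25 min cleavage at room temperature | detection = AMC fluorescence 355/460 nm | read-out basis = percent inhibition | controls = no-proteasome and no-compound wells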
Beta2AR agonist: activates human beta-2 adrenergic receptor causing internalization; Am2.2-beta2AR cells, FAP receptor internalization, flow cytometry; reference of the scale not given here; response, % (concentration not given with the values); 340,000 tested, 0.43% active; AID 504454;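 active = response above a set limit, near 3 SD of response in nonfluorescent compounds, cut at about 42% in these data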;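 note: stock transfer was 100 nL into about 11 µL; a reference agonist was the positive control; negative values mostly stem from fluorescent compounds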
RanGTP-Imp inh: disruptors of Ran-importin-beta complex formation – biochemical, FRET, CFP-Ran, YFP-importin-beta, homogeneous, primary screen | 300,000 tested, 1.1% active | cell-free CFP-Ran/YFP-importin-beta FRET ratio | inhibition, % (no concentration beside the values) | AID 2216;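 active = most replicates above 15%; inconclusive = exactly half above 15%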;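 note: 0% = DMSO wells and 100% = Ran loaded with GDP instead of GTP; wells of about 40 µL received 100 nL stock; the first replicate is given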
LANA-H2A inh: blocks KSHV LANA binding to histone H2A/H2B; cell-free LANA-H2A/H2B peptide, fluorescence polarization; inhibition, % (test concentration not listed); 320,000 tested, 0.6% active; AID 2629; in the data active = inhibition mostly above about 10%, no sharp cut-off; inactive = mostly below about 6.7%;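 note: stock transfer was 7.5 nL into about 10 µL; 0% = median of vehicle wells and 100% = median of positive control wells; one replicate is shown; the record names a cut of 25% in any replicate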
Target sequence (Q9QR71 whole entry, looked up): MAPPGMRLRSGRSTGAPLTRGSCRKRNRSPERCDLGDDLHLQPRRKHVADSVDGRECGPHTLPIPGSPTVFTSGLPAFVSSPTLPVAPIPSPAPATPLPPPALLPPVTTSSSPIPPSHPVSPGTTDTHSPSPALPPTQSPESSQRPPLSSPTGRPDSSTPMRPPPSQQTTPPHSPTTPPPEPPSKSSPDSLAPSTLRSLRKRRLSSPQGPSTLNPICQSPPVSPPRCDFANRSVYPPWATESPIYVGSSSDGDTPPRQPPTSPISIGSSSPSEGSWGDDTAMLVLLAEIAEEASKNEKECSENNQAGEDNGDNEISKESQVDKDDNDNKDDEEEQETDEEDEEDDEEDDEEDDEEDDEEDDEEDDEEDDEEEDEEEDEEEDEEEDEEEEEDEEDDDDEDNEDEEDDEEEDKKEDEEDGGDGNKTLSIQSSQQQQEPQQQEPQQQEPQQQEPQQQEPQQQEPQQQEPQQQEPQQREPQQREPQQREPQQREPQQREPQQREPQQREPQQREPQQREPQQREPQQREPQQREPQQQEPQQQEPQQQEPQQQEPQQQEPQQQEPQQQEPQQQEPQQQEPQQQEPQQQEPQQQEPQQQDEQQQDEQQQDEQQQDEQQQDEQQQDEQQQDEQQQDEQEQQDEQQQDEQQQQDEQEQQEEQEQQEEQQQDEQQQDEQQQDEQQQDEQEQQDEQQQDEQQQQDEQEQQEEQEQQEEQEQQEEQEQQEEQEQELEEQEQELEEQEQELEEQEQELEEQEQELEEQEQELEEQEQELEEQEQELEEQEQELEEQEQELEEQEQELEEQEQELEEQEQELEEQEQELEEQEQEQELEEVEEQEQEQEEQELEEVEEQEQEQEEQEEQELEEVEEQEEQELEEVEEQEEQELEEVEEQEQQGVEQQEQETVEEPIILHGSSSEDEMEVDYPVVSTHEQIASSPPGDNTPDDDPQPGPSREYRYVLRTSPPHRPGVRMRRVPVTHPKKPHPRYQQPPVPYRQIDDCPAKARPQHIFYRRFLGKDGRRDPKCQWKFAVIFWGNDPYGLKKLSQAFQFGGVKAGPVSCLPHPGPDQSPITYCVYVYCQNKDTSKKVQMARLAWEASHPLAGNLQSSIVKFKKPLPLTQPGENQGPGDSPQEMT
Calb FLC: affects C. albicans growth with fluconazole; AID 1979; growth inhibition, % (test concentration not listed); 300,000 tested, 0.57% active; C. albicans CaCi-2 (fluconazole-resistant clinical isolate) + fluconazole, Alamar Blue growth, 48 h;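 active = most replicates above 75%; inconclusive = exactly half above 75%; inactive = most below 75%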;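 note: all wells also contain fluconazole at 8 µg/ml as a sub-toxic cotreatment; 0% = median of DMSO wells and 100% = median of geldanamycin control wells; wells of about 8 µL received 7.5 nL stock; the first replicate is given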
A1 inh: inhibitors of the anti-apoptotic protein A1, read as caspase activation; caspase activation, % (concentration not given with the values); MEF A1-2A-BIM cells, Caspase-Glo 3/7 luminescence, 3 h; percent of clofoctol response, vehicle zero; 330,000 tested, 0.066% active;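 active = over half of replicate activation scores above 10%, or exactly half above 10 with the replicate mean above 10; inconclusive = replicate mean below 10 yet half the replicates above 10; inactive = over half of replicates below 10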;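 note: wells of about 30 µL received 50 nL stock; many hits fall short of the cut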
T cruzi repl: T. cruzi replication inhibition; 300,000 tested, 1.4% active; inhibition, % (test concentration not listed); T. cruzi beta-gal in NIH3T3, luminescence, 90 h;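 active = mean inhibition across valid replicates above about 55%, limit read from the data; inconclusive = mean below that limit but half or more replicates reach it; inactive = mean below it, under half of replicates reach it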;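 note: signal also drops with host cell toxicity which is not excluded here; 0% = plate median of DMSO wells and 100% = zero luminescence signal; higher percent means less beta-gal luminescence so fewer parasites; stock transfer was 50 nL into about 50 µL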
An asterisk follows results filed as active; ? = inconclusive; . = no result given. Not all compounds are listed (hit frequency here may not be typical).

SMILES	Beta cell apopt	UCH37 inh	Beta2AR agonist	RanGTP-Imp inh	LANA-H2A inh	Calb FLC	A1 inh	T cruzi repl
CC1=NN(c2ccccc2)C(=O)C1/C=C1\C(=O)NC(=O)N(c2cc(C)cc(C)c2)C1=O (configuration not stated)	-6	-0.2	6	7.0	1.5	6	-0.9	3
Cc1c(O)ccc(C(=O)CN2CC(C)OC(C)C2)c1O (configuration not stated)	-7	0.3	10	3.4	0.6	-4	-0.5	-9
Cc1ccc(-c2ccc(=O)n(CC(=O)N3CCC4(CC3)OCCO4)n2)cc1	-12	3.7	1	0.8	0.4	-10	1.4	2
C/C(=N\NC(=O)c1ccccc1O)c1c(O)n(Cc2ccccc2)c(=O)[nH]c1=O	3	.	9	8.2	-2.4	-28	-1.7	4
COc1ccccc1CCNCc1ccc(OC)c(OC)c1OC	1	5.6	4	1.2	-2.2	-24	?	6
O=C1NC(=O)C(=Cc2ccc3ccccc3c2)C(=O)N1	-7	-23	3	0.1	1.9	1	?	10
COc1cccc(-c2nc(CS(=O)CC(=O)N3CCC4(CC3)OCCO4)c(C)o2)c1 (configuration not stated)	2	1.5	-1	4.2	5.7	6	0.9	-8
CC(C)n1c(=O)c(C=Nc2ccc(S(N)(=O)=O)cc2)c(O)n(Cc2ccco2)c1=O	2	3.2	-1	1.1	-6.9	0	0.2	2
CC(C)OC12Oc3ccccc3C=C1N1CCC2CC1 (configuration not stated)	-11	-1.7	3	-2.5	0.5	-5	1.4	-4
COc1ccccc1-n1c(O)c(/C=N/N2CCCCC2)c(=O)n(-c2ccccc2OC)c1=S	-7	4.5	-3	3.6	-3.3	-1	0.3	-1
C[C@@H]1CN(C2CCC(C#N)(c3ccc(F)cc3)CC2)CC[C@]1(C(=O)O)c1ccccc1 (some centres not stated)	-9	4.3	-11	.	-5.5	.	1.1	.
COc1ccc(OC)c(CN2CCN(C(=O)COc3cccc(C)c3)CC2)c1	-1	5.8	2	4.6	-2.3	0	0.4	-4
C[N+]1=C(/C=C/Nc2ccccc2)C(C)(C)c2ccccc21	.	4.0	-7	9.5	-1.7	-5	-0.5	-13
COC(=O)C1=C(c2ccc(F)cc2F)C[C@@H]2CC[C@H]1N2C(=O)NCc1ccc(C(F)(F)F)cc1	-2	2.7	-13	.	-7.9	.	1.1	.
Cc1ccccc1C(O)(Cc1ccccc1)C1CN2CCC1CC2 (configuration not stated)	-16	1.9	10	-0.9	1.8	-2	0.1	-9
Clc1ccc(CNC2CN3CCC2CC3)cc1 (configuration not stated)	.	3.6	-2	0.9	1.1	16	0.9	3
N=C1c2ccccc2CN1c1ncccn1	8	-1.8	6	2.0	0.7	-9	0.7	-9
COC(=O)C1=C(c2ccccc2)C[C@@H]2CC[C@H]1N2C(=O)NCC1CC1	-3	-0.1	-1	3.2	-3.2	-1	0.2	-20
COC(=O)C1=C(c2c(C)noc2C)C[C@@H]2CC[C@H]1N2C(=O)N1CCOCC1	-1	3.6	-3	.	-0.9	.	1.1	.
CCc1cccc2c(C#N)cn(CC(=O)N3CCOCC3)c12	-1	-6.3	-6	-0.4	0.1	5	-0.3	6
CN(C)c1cc[n+](CC(O)C[n+]2ccc(N(C)C)cc2)cc1	-2	1.7	-4	2.9	1.9	3	0.9	-9
CCOc1ccc(NC(=O)N2C[C@H]3C[C@@H](C2)c2cccc(=O)n2C3)cc1	-3	0.9	4	0.3	0.8	-4	0.4	-12
Nc1ccccc1C(=O)OCC(=O)Nc1ccc(Br)cc1F	-1	-155	-4	-1.8	-4.5	-32	-0.4	-14
O=C(O)c1ccc(NC(=O)N2C[C@H]3C[C@@H](C2)c2cccc(=O)n2C3)cc1	-8	4.7	1	-9.7	-6.5	6	0.3	-25
CCc1ccc(N2C(=O)NC(=O)/C(=C\C=C\c3ccco3)C2=O)cc1	9	6.3	71*	-2.2	-1.9	13	2.6	-5
The list goes on:
SMILES	Beta cell apopt	UCH37 inh	Beta2AR agonist	RanGTP-Imp inh	LANA-H2A inh	Calb FLC	A1 inh	T cruzi repl
O=C1/C(=C\c2ccncc2)N2CCC1CC2	-2	1.4	-5	4.8	-1.0	-5	1.8	-7
CC(NS(=O)(=O)OCC(Cl)(Cl)Cl)c1ccccc1 (configuration not stated)	1	-1.2	-3	0.2	6.6	-28	1.5	-4
Cc1ccc(N)c(C(=O)c2ccccc2)c1	-6	3.4	-14	-0.5	0.9	-8	0.2	0
Cn1c(=O)c2c(ncn2CCCl)n(C)c1=O	2	1.1	-1	1.3	-2.0	3	-0.2	-9
COP(=S)(OC)c1c(C)nn(CCC#N)c1NC(=O)c1ccc(Cl)cc1	-5	5.1	-9	2.4	0.2	-3	0.2	-2
Cc1cc(NC(=O)CCl)no1	-1	-1.7	-2	1.9	1.6	10	1.4	10
COC(=O)C1=C(c2ccc(C(C)=O)cc2)C[C@@H]2CC[C@H]1N2C(=O)N1CCC(O)(c2ccc(Cl)cc2)CC1	5	0.0	11	.	-0.1	.	0.4	.
OC(CN1CCC(c2c[nH]c3ccccc23)CC1)C(F)(F)F (configuration not stated)	.	5.9	-6	-1.2	-5.1	-25	-0.4	-7
CCc1ccc(NC(=O)CCNC(=O)N2C[C@H]3C[C@@H](C2)c2cccc(=O)n2C3)cc1	.	-0.1	-1	-1.2	-7.1	-2	0.4	1
Cc1ccc2c(c1)C(c1ccccc1)=NCC(=O)N2	6	4.8	-5	2.1	-0.3	9	-0.2	-9
CN(C)C(Cc1ccc(C#N)cc1)C(=O)c1ccccc1 (configuration not stated)	0	1.5	6	14	0.4	-6	0.5	-7
CCOc1ccccc1-n1c(O)c(C=NCc2ccc3c(c2)OCO3)c(=O)[nH]c1=O	3	3.7	0	-0.1	-1.1	-17	0.7	-1
CC(Cl)(Cl)/C(=N/P(=S)(N1CCOCC1)N1CCOCC1)N1CCOCC1	39	.	1	-9.0	3.8	-2	0.1	1
CC(=O)OC1N=C(c2ccccc2)c2ccccc2NC1=O (configuration not stated)	-3	2.7	1	-3.1	0.6	4	0.1	4
COc1ccc(C(O)C(C)NC(C)C(O)c2ccc(OC)cc2)cc1 (configuration not stated)	.	1.9	-1	2.2	-0.9	-3	1.1	-11
COC(=O)C1=C(c2ccc(F)cc2F)C[C@@H]2CC[C@H]1N2C(=O)N1CCOCC1	3	-0.8	3	.	6.3	.	0.8	.
Cc1cccc(NP(C)(=O)c2nc3c(s2)CCCC3)c1 (configuration not stated)	3	-2.0	2	5.7	2.9	-13	0.2	-9
Cc1ccc(NC(=O)CCNC(=O)N2C[C@H]3C[C@@H](C2)c2cccc(=O)n2C3)c(C)c1	.	3.9	-3	-1.7	0.8	-7	0.8	-21
CC1=NN=C(c2ccc(N)cc2)c2cc3c(cc2C1)OCO3	-4	4.2	-3	.	1.8	.	-0.2	.
O=C(C1CCN(c2nc3ccc(Br)cc3s2)CC1)N1CCC2(CC1)OCCO2	12	-0.9	-5	-3.1	-1.0	-19	-0.2	17
CCOC(=O)C1(CCc2ccccc2)CCN(Cc2ccco2)CC1	-5	2.7	5	-1.7	-4.7	-26	-0.2	-26
Cc1c(NC(=O)C(C)OC(=O)Cc2ccccc2)c(=O)n(-c2ccccc2)n1C (configuration not stated)	-2	0.6	-3	5.1	2.7	-14	-0.3	-16
CC1(C)C2SCC(=O)N2CCN1CC(=O)NN (configuration not stated)	-14	-1.7	0	6.3	6.1	-1	0.2	12
COC(=O)C1=C(c2cccc(C#N)c2)C[C@@H]2CC[C@H]1N2C(=O)N1CCCC1	-5	-0.4	1	.	-0.8	.	0.0	.
COc1ccccc1N(CC(=O)NC1CCCCC1)C(=O)c1cnn(C(C)C)c1	-3	0.5	-4	-5.7	9.5	19	0.7	0
Additional structures
SMILES	Beta cell apopt	UCH37 inh	Beta2AR agonist	RanGTP-Imp inh	LANA-H2A inh	Calb FLC	A1 inh	T cruzi repl
CSc1ccc(CN2CCN(c3ccccc3C)CC2)cc1	.	1.2	-1	-2.7	-2.1	-6	0.7	3
CCCNS(=O)(=O)c1ccc(OCC(=O)N2CCN(C)CC2)cc1	-7	-0.1	5	-6.4	-8.3	-14	0.3	34
O=P(Nc1cccnc1)(Oc1ccccc1)Oc1ccccc1	1	3.7	5	2.8	-4.4	-15	1.5	5
Cc1ccc(C)c(NC(=O)CSc2nnc([C@@H](N)Cc3c[nH]c4ccccc34)o2)c1	-4	0.7	-1	6.8	-1.9	?	1.1	-10
CC(C)c1ccc(N2C(=O)NC(=O)/C(=C/C=C/c3ccco3)C2=O)cc1	65	3.0	15	0.2	-0.3	-11	0.6	2
CN[C@@H]1C[C@@H](c2ccc(Cl)c(Cl)c2)c2ccccc21	9	.	.	2.8	-2.4	.	0.3	29
C=CC[N+]1(C)C2CCC1CC(O)C2 (configuration not stated)	-1	1.1	0	-1.4	3.0	0	1.3	-10
Cc1ccc2occ(CN3CC4CC(C3)c3cccc(=O)n3C4)c(=O)c2c1 (configuration not stated)	-2	-0.3	7	0.1	3.8	4	0.5	20
CCOC(=O)Cn1cc(C=C2C(=O)N(C)C(=O)N(C)C2=O)c2ccccc21	-1	.	-15	-4.7	-7.0	-7	0.3	-9
CC(=NCCCN1CCOCC1)c1c(O)[nH]c(=O)[nH]c1=O	-4	3.6	-4	0.1	2.6	-10	0.2	-17
CCCC(=O)Nc1ccc(N2CCN(CC)CC2)c(Cl)c1	0	5.8	-7	1.5	-6.6	-3	0.9	-6
C[C@]12CCC3C(CC[C@H]4C[C@@H](O)CC[C@]34C)C1C[C@@H](Br)[C@@H]2O (some centres not stated)	-1	5.2	.	.	-0.5	.	0.3	.
COc1nc(NC(C)C)nc(NC(C)C)n1	1	30*	-4	?	-2.1	-4	-0.6	-16
c1cc2c(cc1CCNC1C3CC4CC(C3)CC1C4)OCO2 (configuration not stated)	-7	-1.9	-4	1.7	4.4	-36	2.1	18
C/C(=N\N1CCCCCC1)c1c(O)n(-c2ccc(C)cc2)c(=O)[nH]c1=O	2	3.3	-4	?	-2.1	18	0.1	0
Cc1ccc(NP(=O)(Nc2ccc(C)cc2)Oc2ccccc2)cc1	-1	4.3	5	-7.5	-5.0	17	0.6	-5
O=C1CCCC2C3CCCN4CCCC(CN12)C34 (configuration not stated)	-3	0.4	8	3.2	1.2	1	0.3	-7
Cn1ncnc2c(=O)n(C)c(=O)nc1-2	125*	100*	53*	-2.6	-0.3	17	-4.4	63*
C[C@H](NC(=O)N1C[C@H]2C[C@@H](C1)c1cccc(=O)n1C2)C(=O)Nc1cccc(F)c1	-6	-0.7	0	-4.7	-0.6	1	-0.4	-5
O=c1c2ccccc2nc(/C=C/c2ccc3c(c2)OCO3)n1-c1ccccc1	3	-25	-2	-0.3	11*	26	-0.3	10
O=c1cccc2n1CC1CC2CN(S(=O)(=O)c2ccc(F)cc2)C1 (configuration not stated)	-5	-0.5	-10	0.4	2.0	20	0.1	-13
Cc1c(C(=O)N2CCC3(CC2)OCCO3)sc2ncnc(N3CCN(c4ccccn4)CC3)c12	-3	6.7	9	.	-6.1	.	0.4	.
CN1CCN(C(=O)COc2ccc3ccccc3c2Br)CC1	2	3.8	-5	-2.7	-11	23	0.0	10
